# Source: PubChem (Johns Hopkins Ion Channel Center)
# KCNQ2 pot: potentiators of rat KCNQ2 potassium channel; CHO-K1 KCNQ2, FluxOR thallium flux fluorescence; stronger effect = higher value; B-score at 10 µM; AID 2239; O88943; 0.54% of 310,000 active;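 active = fluorescence ratio B-score at least 3 SD of library B-scores, with initial fluorescence B-score within 3 SD, cut at about 5.3 in these data; same plate scores as AID 2156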;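 also: B-score of peak minus minimum over baseline fluorescence ratio after K+ and Tl+ stimulus; positive B-score means potentiation of KCNQ2 with more thallium influx and brighter signal; only the inactives scoring about 0 or higher are listed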
# Target sequence (O88943 whole entry, looked up): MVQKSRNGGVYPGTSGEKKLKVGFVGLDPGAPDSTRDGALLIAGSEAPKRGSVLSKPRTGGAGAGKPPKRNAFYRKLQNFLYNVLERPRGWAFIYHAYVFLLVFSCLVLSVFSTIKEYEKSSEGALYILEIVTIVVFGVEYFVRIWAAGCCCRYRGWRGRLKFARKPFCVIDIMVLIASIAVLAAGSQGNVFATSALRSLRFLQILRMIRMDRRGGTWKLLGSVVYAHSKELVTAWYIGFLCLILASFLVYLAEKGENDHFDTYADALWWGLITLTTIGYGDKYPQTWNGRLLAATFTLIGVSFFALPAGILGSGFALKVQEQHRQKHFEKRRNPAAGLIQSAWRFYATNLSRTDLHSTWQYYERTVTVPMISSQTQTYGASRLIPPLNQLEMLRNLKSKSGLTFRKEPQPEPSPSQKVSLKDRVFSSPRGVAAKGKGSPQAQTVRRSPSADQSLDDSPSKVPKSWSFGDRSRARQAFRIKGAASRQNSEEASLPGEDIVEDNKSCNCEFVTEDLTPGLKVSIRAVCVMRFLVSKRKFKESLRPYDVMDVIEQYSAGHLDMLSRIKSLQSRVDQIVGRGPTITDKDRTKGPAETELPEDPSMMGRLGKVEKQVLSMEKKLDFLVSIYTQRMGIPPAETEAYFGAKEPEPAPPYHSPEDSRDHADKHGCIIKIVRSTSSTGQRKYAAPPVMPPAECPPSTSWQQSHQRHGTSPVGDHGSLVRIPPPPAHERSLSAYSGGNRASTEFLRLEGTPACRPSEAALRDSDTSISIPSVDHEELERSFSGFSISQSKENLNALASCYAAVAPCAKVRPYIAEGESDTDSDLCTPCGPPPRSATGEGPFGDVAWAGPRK
# KCNQ2 pot baseline: also measured in KCNQ2 pot; calls as there; B-score; compound at 10 µM; measured here: initial fluorescence intensity artifact check;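 brightness before thallium and not channel activity; 0 = typical well and far values either way flag optical interference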
# Active calls of the source: *.
SMILES,KCNQ2 pot,KCNQ2 pot baseline
CCC(C)C(NC(=O)C(C)NC(=O)CNC(=O)OC(C)(C)C)C(N)=O (stereo not given),0.67,-1.38
O=C(NCc1ccc(Cl)c(Cl)c1)c1ccc2c(c1)OCO2,0.66,-0.02
O=C(CSc1nnc2ncccn12)Nc1cccc2ccccc12,1.75,0.67
CC(=O)c1ccc2c3c(cccc13)C(=O)N(CCc1ccccc1)C2=O,0.91,-0.93
Cc1cccc(NC(=S)NNC(=O)c2ccc(Br)o2)c1,2.41,-0.87
CC(=O)NCCCCCCNC(C)=O,0.47,0.24
NCCCC[C@H]1CNC(=O)C(=O)N1CCc1cc(C(F)(F)F)cc(C(F)(F)F)c1,0.29,-1.69
Nc1nc(F)nc2c1ncn2[C@@H]1O[C@H](CO)[C@@H](O)[C@@H]1O,0.92,-0.06
O=C(CSc1ccccc1)N1CCN(S(=O)(=O)c2ccccc2)CC1,0.03,0.32
COc1ccc(/C=N/NC(=O)c2ccc3c(c2)OCO3)cc1,0.35,0.34
Oc1ccc(Nc2ccnc3cc(Cl)ccc23)cc1,1.42,0.64
Cc1ccc(N(CC(=O)NC2CCCCC2)C(=O)c2ccc(C)s2)cc1,0.27,2.36
Cc1cc(NC(=O)CN2CCC(C)CC2)no1,2.26,0.1
Cc1nc2ccc(S(=O)(=O)N(C)CC(=O)NC(C)c3ccccc3)cc2s1 (stereo not given),2.4,-0.2
O=S1(=O)C=CC(N2CCOCC2)C1 (stereo not given),1.04,0.26
COc1cccc2c1OC1(C)CC2NC(=O)N1c1cccc(C(=O)N2CCN(c3ccccn3)CC2)c1 (stereo not given),2.15,-0.21
CCCCN(C(=O)c1ccc(N2CCCC2=O)cc1)c1c(N)n(CCCC)c(=O)[nH]c1=O,0.85,-0.7
O=C(Cc1ccccc1)NCCS(=O)(=O)N1CCN(c2cccc(Cl)c2)CC1,0.71,-0.22
Cc1ncc(N=Nc2ccc(F)cc2)c(-c2ccc(Cl)cc2)n1,0.06,-0.05
CCOC(=O)C1CCN(C(=O)COC(=O)CN(C)S(=O)(=O)c2ccc(NC(C)=O)cc2)CC1,1.19,-0.04
COCC(=O)Nc1cc(C(=O)Nc2ccccc2C)ccc1Cl,1.03,-0.01
Cc1cccc(OCc2nn[nH]n2)c1C,0.06,0
O=C(O)C1C(c2ccccc2)C(C(=O)Oc2ccc(O)cc2)C1c1ccccc1 (stereo not given),0.15,-0.6
CCOCCCNc1nc2nc3ccc(C)cn3c(=O)c2cc1C(=O)NCC1CCCO1 (stereo not given),1.12,-0.22
Cc1ccc(C2(C)NC(=O)N(CC(=O)NCCC3=CCCCC3)C2=O)cc1 (stereo not given),0.02,-2.25

# Going on with the list.
SMILES,KCNQ2 pot,KCNQ2 pot baseline
O=c1cc(Nc2ccc3c(c2)OCCO3)[nH]c(=O)n1C1CCCCC1,1.91,-0.29
CC(=O)Nc1cccc(-c2nnc(SCc3ccccc3C#N)n2C)c1,1.7,-2.57
CC(=O)NNc1ncnc2c1cnn2-c1ccccc1,0.02,-0.14
Cc1ccc(NC(=O)CCN2C(=O)c3ccccc3C2=O)cc1C,1.03,-0.02
CCN(CC)C(=O)N1CCc2ccccc21,2.41,-1.02
COc1cccc(/C(O)=C/C(=O)C(=O)Nc2ccc(S(=O)(=O)NC(C)=O)cc2)c1,0.01,0.81
OC(COCC(F)(F)C(F)(F)C(F)(F)C(F)F)Cn1c2ccccc2c2ccccc21 (stereo not given),0.6,0.71
CCOc1ccc(-c2cc3cc(OC)c(OC)cc3c(C)n2)cc1,1.01,-0.54
COc1ccc(S(=O)(=O)Cc2ccc(C(=O)N3CCc4ccccc4C3)o2)cc1,0.48,0.82
CCSc1nnc(NC(=O)c2ccccc2C)s1,1.38,2.46
COc1cc2nc3c4ccccc4n(CC#N)c3nc2cc1OC,0.49,-0.39
CCCCOc1ccc(/C=C/C(=O)Nc2ccc(C(N)=O)cc2)cc1,0.55,-0.44
O=C(O)c1ccccc1C(=O)c1ccc(Oc2ccccc2)cc1,1.94,0.08
CCNC(=S)NNC(=O)CCc1nc2cc(Cl)ccc2n(Cc2ccccc2)c1=O,0.23,0.52
COC(=O)c1ccc(S(=O)(=O)NC(C)(C)C)n1C,1.14,-1.03
CCCC(=O)Nc1ccc(NC(=O)c2cccc(OC)c2)cn1,0.88,0.39
COC(=O)C1=C(C)N(CC(C)C)C(=O)/C1=C\c1cccs1,0.86,-1.67
COc1ccccc1OCC(=O)NCCS(=O)(=O)N1CCN(c2ccccc2)CC1,0.05,1.47
Cc1ccn2cc(C(=O)NC3CCN(Cc4ccccc4)CC3)nc2c1,1.66,-0.11
O=C1CCCN1CCCNS(=O)(=O)c1ccc(F)cc1F,0.97,1.4
N#Cc1ccc2nc3c(nc2c1)CCCC3,1.89,-0.01
COCCNC(=O)C(c1cccs1)N(C(=O)Cn1nnc2ccccc21)c1ccc(OC)cc1 (stereo not given),0.13,-2.65
CCOC(=O)c1cc(-c2csc(Nc3c(C)cc(C)cc3C)n2)on1,0.34,-0.02
CC(=N[C@@H]1CCCC[C@H]1N=C(C)c1ccccc1O)c1ccccc1O,0.01,1.13
COc1ccc(NC(=O)CNC(=O)c2nn(-c3ccc(OC)c(OC)c3)c(=O)c3ccccc23)c(OC)c1,1.64,-0.45

# (further entries)
SMILES,KCNQ2 pot,KCNQ2 pot baseline
COC(C[C@@H]1O[C@@H]1[C@H](O)[C@H](C)OCc1ccccc1)OC,2.29,-2.54
O=C(c1ccc(CNS(=O)(=O)c2ccc(Br)cc2)cc1)N1CCCCC1,1.14,1.2
COC(=O)CSc1[nH]c2ccc(Br)cc2c1[N+](=O)[O-],6.46*,-2.68*
S=C(NCc1ccccc1)Nc1cccc2ccccc12,1.55,-1.27
Cc1cc(Cl)ccc1NC(=S)NCc1ccco1,0.75,0.57
O=C(NC1CCCCCC1)C(=S)NC1CCCCC1,0.05,0.62
CC(C)C(NC(=O)c1c(F)cccc1F)C(=O)NC1CC(C)(C)NC(C)(C)C1 (stereo not given),0.15,-0.01
Cc1ccc(-c2ccccc2NC(=O)C2C3C=CC(C3)C2C(=O)O)o1 (stereo not given),0.12,-0.54
O=C(c1ccccn1)N1CCN(S(=O)(=O)c2ccc3ccccc3c2)CC1,0.2,-0.32
Cc1ccccc1NC(=S)NCCc1ccccc1,0.07,-0.61
O=P(O)(O)C(O)C(F)(F)C(F)(F)C(F)(F)C(F)F (stereo not given),0.19,0.02
COC(=O)c1ccnc(/C=N/O)c1,1.32,-1.37
CCOc1ccc(OCC)c(NC(=O)CCSCCc2ccccn2)c1,2.48,-1.07
CN(C)c1nc(N)c([N+](=O)[O-])c(NCCO)n1,0.13,0.45
COc1ccc(C(=O)NC2CC2)cc1OC1CCN(Cc2ccc(F)c(F)c2)CC1,0.09,0.52
COc1ccccc1N1CCN(C(=O)C2CCCN(S(=O)(=O)c3ccc4c(c3)CCCN4C(C)=O)C2)CC1 (stereo not given),0.33,-1.99
N/C(=N\OC(=O)CCC1CCCC1)c1cccc([N+](=O)[O-])c1,5.82*,0.3*
COc1ccccc1OCCSc1nc(C)c(Cc2ccccc2)c(=O)[nH]1,0.12,1.38
NS(=O)(=O)c1ccc(CCNC(=O)/C=C/c2ccccc2[N+](=O)[O-])cc1,0.32,0.35
COc1cc(NC(=O)c2cc(C(C)C)on2)cc(OC)c1OC,0.78,-0.02
O=C(/C=C/Nc1cccc([N+](=O)[O-])c1)c1cccs1,2.2,-0.35
COc1ccccc1/C=N/NC(=O)c1ccccc1NS(=O)(=O)c1ccc(C)cc1,0.68,0.26
N/C(=N\OC(=O)Cc1cccc2ccccc12)c1ccccn1,0.1,-0.09
C=CCSc1nnc(Cc2cc(=O)[nH]c(=O)[nH]2)n1-c1cc(C)ccc1C,0.59,0.14
N#CCCN(C(=O)CSc1nc2nc(-c3cccs3)cc(C(F)(F)F)c2c(=O)[nH]1)c1ccccc1,0.9,-0.11

# Single values from the results shown.
# In KCNQ2 pot, O=C(/C=C/Nc1cccc([N+](=O)[O-])c1)c1cccs1 is listed with 2.2
# In KCNQ2 pot, O=C(c1ccccn1)N1CCN(S(=O)(=O)c2ccc3ccccc3c2)CC1 is listed with 0.2

# The listing picks up; the 4 compounds before the break are reprinted first.
SMILES,KCNQ2 pot,KCNQ2 pot baseline
COc1ccccc1/C=N/NC(=O)c1ccccc1NS(=O)(=O)c1ccc(C)cc1,0.68,0.26
N/C(=N\OC(=O)Cc1cccc2ccccc12)c1ccccn1,0.1,-0.09
C=CCSc1nnc(Cc2cc(=O)[nH]c(=O)[nH]2)n1-c1cc(C)ccc1C,0.59,0.14
N#CCCN(C(=O)CSc1nc2nc(-c3cccs3)cc(C(F)(F)F)c2c(=O)[nH]1)c1ccccc1,0.9,-0.11
O=C(Nc1ccccc1N1CCOCC1)c1ccc2c(c1)C(=O)N(Cc1ccncc1)C2=O,0.56,0.42
COc1ccc(NC(=O)c2ccc([N+](=O)[O-])cc2[N+](=O)[O-])c(OC)c1,0.96,0.35
O=C(COc1ccc(F)cc1)Nc1nccs1,0.73,0.17
COc1ccccc1N(Cc1cc(=O)[nH]c2ccccc12)C(=O)c1ccc([N+](=O)[O-])cc1,0.4,0.4
COc1cc(C(=O)NCC(=O)N/N=C(/C)c2ccc3c(c2)CCCC3)cc(OC)c1OC,0.07,-0.11
Cn1c(N)c(C(=O)CCl)c(=O)n(C)c1=O,0.82,1.17
O=C(CNC(=O)c1cccs1)NCCN1CCN(Cc2ccccc2)CC1,1.18,-0.69
COCCCn1c(SCc2nc3ccccc3c(=O)[nH]2)nc2ccccc2c1=O,1.61,0.01
CCN(CC(=O)NC(=O)NC1CCCCC1)Cc1nc2ccccc2c(=O)[nH]1,10.2*,-0.72*
NC(=O)NC(=O)COC(=O)c1ccc(OC(F)(F)F)cc1,0.68,0.4
Cc1ccc(Cl)cc1-c1ccc(C=Nc2ccc(N3CCOCC3)cc2)o1,0.54,0.02
Cc1ccc(C(C(=O)NC2CCCCC2)N(CCCN2CCOCC2)C(=O)c2snc(C(N)=O)c2N)cc1 (stereo not given),0.14,0.71
O=C1CCN(CCCc2ccccc2)CCN1CCO,0.49,0.48
COc1cccc(/C=N/n2c(-c3cccs3)n[nH]c2=S)c1,2.07,0.39
Cc1nc(SCC#N)c2c3c(sc2n1)CCC3,0.25,1.54
COc1ccc(C)cc1S(=O)(=O)N1CCN(S(=O)(=O)c2cc(C)ccc2OC)C(C)C1 (stereo not given),0.82,-0.02
CC(C)c1ccc(C2NC(C(=O)O)CS2)cc1 (stereo not given),1.11,-1.21
N=C1SCC(=O)N1c1ncc(Cc2cccc(Cl)c2)s1,2.1,-2.75
Cc1onc(-c2ccccc2Cl)c1C(=O)NCc1ccccn1,0.52,-0.19
Cc1nc(-c2cccc(NS(=O)(=O)c3ccccc3)c2)cs1,1.07,-1.94
Cc1cccc(NC(=S)NCCc2ccccc2)n1,1.23,3.16
CCOc1ccc(-n2ccc(=O)c(C(=O)Nc3ccc(S(=O)(=O)Nc4nccs4)cc3)n2)cc1,1.98,-1.23
Cc1ccc2oc(C(=O)NCCCN3CCOCC3)c(C)c2c1,0.1,-0.44
CCOC(=O)C1CCN(C(=O)c2cc(COc3ccc(F)cc3F)on2)CC1,0.56,-0.22
COC(=O)c1ccccc1OC(=O)c1cc2ccccc2oc1=O,1.3,0.02

# Next records:
SMILES,KCNQ2 pot,KCNQ2 pot baseline
Cc1ccc(C)c(NC(=O)CCC(=O)N/N=C/c2ccc[nH]2)c1,0.1,0.15
CN(C)CC1CCCCC1OC(=O)c1ccc(Cl)cc1Cl (stereo not given),1.34,-1.07
C[C@H](NC(=O)Nc1ccccc1F)C(=O)O,0.01,0.08
CCOC(=O)/C(C#N)=C1/C=CN(c2ccccc2)C=N1,0.81,2.09
CC(C)(C)c1nc(NCCO)c2nnn(Cc3ccccc3)c2n1,2.35,-1.21
N#CC1=C(N)Oc2c(oc(CO)cc2=O)C12C(=O)Nc1ccc(Cl)cc12 (stereo not given),0.75,2.89
CCNC(=S)N(Cc1ccccc1)Cc1nc2ccccc2c(=O)[nH]1,0.54,1
O=C(Nc1ccc(Cl)c(Cl)c1)N1CC=CCC1,1.97,0.75
NC(=O)c1ccccc1NC(=O)C(c1ccccc1)c1ccccc1,0.8,-0.04
Cc1cccc(Oc2ncnc(N)c2[N+](=O)[O-])c1C,0.91,-1.81
COc1ccc(NC(=O)CSc2[nH]c(=O)cc(C)c2C#N)cc1OC,0.23,0.15
Cc1ccc(C2=CC(C)(c3ccc(C)cc3)Nc3nc(C(F)(F)F)nn32)cc1 (stereo not given),0.15,2.56
O=C(NCCc1ccccc1)C(=O)NCC1OCCCN1S(=O)(=O)c1cc(F)ccc1F (stereo not given),0.46,-0.33
Cc1nc2ccc(C(=O)OCc3nnc(-c4ccc(Br)cc4)o3)cc2nc1C,0.72,-1.34
CCC(=O)NCCc1nc2ccccc2n1Cc1ccccc1,0.76,-0.22
Cc1cc(NC(=O)C2CCN(S(=O)(=O)Cc3ccccc3)CC2)ccc1-n1cnnn1,0.4,0.01
CC1=CS(=O)(=O)CC1Sc1ncn[nH]1 (stereo not given),0.57,4.08
CC(=O)NC(=S)Nc1ccc(NC(=O)c2cccnc2)cc1,0.95,0.84
COc1ccccc1-c1nc(-c2ccc(C)nc2OC)no1,0.28,0.11
COc1ccc(CN(CC(=O)NCC2CCCO2)C(=O)CNS(=O)(=O)c2ccccc2)cc1 (stereo not given),0.61,-0.96
O=C(CN1CCCCC1)Nc1nc(-c2ccc(F)c(F)c2)cs1,0.05,0.11
COc1ccc(NC(=S)N(CCCN2CCOCC2)Cc2ccccn2)cc1,0.04,2.68

# Molecules above that have bromine, in the order listed:
SMILES,KCNQ2 pot,KCNQ2 pot baseline
Cc1cccc(NC(=S)NNC(=O)c2ccc(Br)o2)c1,2.41,-0.87
O=C(c1ccc(CNS(=O)(=O)c2ccc(Br)cc2)cc1)N1CCCCC1,1.14,1.2
COC(=O)CSc1[nH]c2ccc(Br)cc2c1[N+](=O)[O-],6.46*,-2.68*
Cc1nc2ccc(C(=O)OCc3nnc(-c4ccc(Br)cc4)o3)cc2nc1C,0.72,-1.34

# This is a subset; the hit share may differ from the screen's.
